Compound activity as filed in PubChem BioAssay.
PINK1 modulator: changes PINK1 expression | 0.2% of 410,000 active | Potency, µM (series often up to 76.6 µM), for inactives: top-dose activation (PINK1 increase), usual class: activators | AID 624263 | PINK1 immunofluorescence, high-content cytometry, 24 h; active = well fitted activation curve with a large enough effect; inconclusive = small, poorly fitted or top-dose-only effect; inactive = flat fitted curve, though single readings scatter; cell line not stated here;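 note: potency is the fitted concentration of half-maximal effect; % of control where 0% means no effect; nearly all actives have a fitted effect of over 65% in size; a mitochondrial uncoupler was the plate control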
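Cells are seeded, rested 12 hours, then given compound at five concentrations or DMSO for 24 hours. After fixation, blocking and antibody staining, PINK1 amount and mitochondrial localization are scored; CCCP serves as control.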
D2 ag: activates the human D2 dopamine receptor; P14416; DiscoveRx PathHunter D2 beta-arrestin, luminescence, 90 min; 100% = 57 uM dopamine signal; activation, % (concentration not given with the values); 0.084% of 360,000 active; AID 624465; in the data active = activation above about 40%; inconclusive = about 15% to 40%; inactive = below about 15%; note: compound concentration not given in the record; the text of the record calls up to 30% inactive
Target sequence (P14416 whole entry, looked up): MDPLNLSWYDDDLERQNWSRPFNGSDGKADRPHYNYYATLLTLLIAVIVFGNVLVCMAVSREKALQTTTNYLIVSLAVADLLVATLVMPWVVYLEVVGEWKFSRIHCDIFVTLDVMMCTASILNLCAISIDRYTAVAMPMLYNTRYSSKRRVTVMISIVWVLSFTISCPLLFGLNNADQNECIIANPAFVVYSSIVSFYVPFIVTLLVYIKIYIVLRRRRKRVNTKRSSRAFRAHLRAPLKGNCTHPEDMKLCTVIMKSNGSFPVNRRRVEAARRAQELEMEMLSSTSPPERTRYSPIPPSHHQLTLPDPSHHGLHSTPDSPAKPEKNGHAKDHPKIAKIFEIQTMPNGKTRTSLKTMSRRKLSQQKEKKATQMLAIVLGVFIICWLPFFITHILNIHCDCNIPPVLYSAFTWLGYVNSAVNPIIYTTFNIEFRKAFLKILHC
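DiscoveRx PathHunter D2 beta-arrestin cells (2,100/well) attached overnight, then compound-stimulated 90 min at 37 C in HBSS/10 mM HEPES/0.1% Tween-20 buffer; beta-galactosidase complementation read by luminescence after 1 h at ambient temperature. Dopamine 57 uM final (EC100) as control.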
CtBP-E1A blk: inhibitors of CtBP/E1A interaction. AlphaScreen GST-E1A/His-CtBP binding, 1536-well; hits give low values; control for the full effect not named in the record. activity change, % (concentration not given with the values). 0.49% of 340,000 active. AID 651724; in the data active means activity change below about -65%; inconclusive means about -30% to -65%; inactive means above about -30%; note: % is set by controls: 0 for no effect and ±100 for the full control effect
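Steps: dispense buffer (Tris pH 8.0, NaCl 300 mM, TCEP 1 mM, BSA, Tween 20); add 5X protein mix (GST-E1A, His-CtBP, 125 nM each); pin 23 nL compound; 2 h at 37 °C, dark; add 5X beads (50 ug/mL); 1 h; read.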
TRPV1 potentiator: human TRPV1 potentiation; potentiation, % at 8.33 µM; TRPV1-expressing cells, Fluo-8 calcium influx, capsaicin EC20 potentiation; host cell line not named in the record; control for the full effect not named in the record; AID 540277; Q8NER1; 0.02% of 320,000 active; active means potentiation above 80%; inconclusive means 30% to 80%; inactive means below 30%; note: 0% is about no effect
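Fluo-8 calcium influx in TRPV1-expressing cells, kinetic read (ex 480/em 520 nm). Compound added and read 3 min for agonist activity, followed by capsaicin at EC20 final and 2 min further read for enhancement.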
Six1-Eya2 inh: blocks human Six1 binding to Eya2 | Q15475+O00167 | AlphaScreen GST-Six1/His-Eya2 binding, biochemical; hits give low values; control for the full effect not named in the record | activity change, % (test concentration not listed) | 0.56% of 360,000 active; in the data active = activity change below about -65%; inconclusive = about -30% to -65%; inactive = above about -30%; note: % is set by controls: 0 for no effect and ±100 for the full control effect; compound concentration not given in the record
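Compounds are tested against tagged Six1 and Eya2 proteins bridged by glutathione donor and nickel acceptor beads; after a one-hour incubation at 37 °C without light, AlphaScreen emission is recorded.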
D2 potentiator: human D2 receptor positive allosteric modulation; P14416; DiscoveRx D2 beta-arrestin cells, luminescence, 90 min; 100% = 57 uM dopamine signal; potentiation, % (test concentration not listed); 0.23% of 360,000 active; active = potentiation of 50% or more; inconclusive = 30% to 50%; inactive = 30% or less;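 note: compound concentration not given in the record; tested on top of an EC20 dose of dopamine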
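PathHunter D2 cells, attached overnight at 37 deg C, received compound in DMSO plus dopamine at EC20 (50 nM final) for 90 min at 37 deg C. Beta-arrestin recruitment was read as luminescence after 1 h with detection reagent at ambient temperature.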
Sfp PPTase inh: Sfp phosphopantetheinyl transferase inhibition | Biochemical Sfp PPTase activity, qHTS | Potency, µM, inactives show max response, negative = inhibition, hits mostly inhibitors | 3.5% of 310,000 active | AID 1490; active = well fitted inhibition curve with a large enough effect; inconclusive = small, poorly fitted or top-dose-only effect, or another doubt; inactive = no such curve, though single readings can be large or run the other way;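 note: the enzyme is Sfp with the accession as filed and its product quenches rhodamine fluorescence; potency is the fitted concentration of half-maximal effect; 0% = enzyme reaction without inhibitor and -100% = no enzyme wells; top concentration of the series not given in the record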
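Reaction rates are the 30-min fluorescence difference (ex 525, em 598 nm) in wells containing 15 nM Sfp, 5 uM rhodamine-CoA and 12.5 uM BHQ-2-YbbR at pH 7.6 with 10 mM MgCl2.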
Numbers without * were called inactive; ? = inconclusive; . = no result given; & = joins results of further samples; [ ] = remark or other dose. Random draw from the library (roughly 3.7% active in at least one column).

SMILES	PINK1 modulator	D2 ag	CtBP-E1A blk	TRPV1 potentiator	Six1-Eya2 inh	D2 potentiator	Sfp PPTase inh
COc1ccc(N2CCN(C(=O)CCC(=O)NNc3nc4ccccc4c4nc(C)nn34)CC2)cc1	-1.1%&0.0%	0.9	-11.3	4.8	-9.9	-7.7	16.2%
COc1cc(OC)c(N(C)C(=O)CCNC(=O)Cn2cnc3ccccc3c2=O)cc1Cl	-1.0%[38.3 µM]	-2.4	-0.4	-13.7	-0.7	-11.5	7.7%
CCOc1ccccc1N1CCN(c2nc3ccccc3nc2C(C#N)C(=O)OC)CC1 (stereo not drawn)	1.5%	4.2	-9.7	-11.3	-16.3	17.6	-0.8%
COCCN(CCOC)S(=O)(=O)c1ccc(C(=O)Nc2nnc(COC)o2)cc1	-1.4%	-0.9	-12.9	3.1	-13.7	1.2	-45.6%
Cc1cccc(NC(=O)C2CCCN(c3nc(C)cc(C)n3)C2)c1 (stereo not drawn)	3.5%[38.3 µM]	1.2	2.3	-5.7	3.7	-7.5	18.4%
COc1ccccc1N1CCN(C2CCN(C(=O)COc3ccccc3)CC2)CC1	0.7%	1.4	-0.8	22.2	3.9	-31.7	-5.6%
Cn1nc(OCC(N)=O)ccc1=O	0.7%	-1.8	4.7	-4.9	2.8	-5.0	12.9%
CC(=O)Nc1ccc(S(=O)(=O)NC(CC(=O)O)c2ccc(OC(C)C)cc2)cc1 (stereo not drawn)	0.1%	-3.8	0.7	2.7	4.5	-21.8	18.3%
O=C1c2ccccc2C(=O)N1n1cccc1	0.8%	-1.3	7.4	5.9	3.1	-0.7	-3.3%
O=C(CSc1nnc2sc3ccccc3n12)c1ccco1	.	-0.6	0.1	27.8	-5.0	3.3	-6.2%
O=C(CSc1nc2ccccc2o1)N/N=C/c1ccc(O)c(O)c1	0.9%	-1.0	-19.9	-0.8	-24.5	-6.9	?
O=S(=O)(NCc1ccco1)c1ccc(Cl)s1	1.3%	-1.3	-2.5	.	-6.5	-0.3	.
CNC(=O)NC(=O)C(OC(=O)Cc1cccc(C(F)(F)F)c1)c1ccccc1 (stereo not drawn)	-1.9%	2.4	0.0	-5.2	-3.9	-0.4	1.5%
O=C1C2C3C=CC(C3)C2C(=O)N1CCCCN1C(=O)C2C3C=CC(C3)C2C1=O (stereo not drawn)	2.1%	-2.1	-1.2	0.7	-1.9	-19.2	-0.2%
COC(=O)C1=C(C)OC(N)=C(C#N)C1c1ccco1 (stereo not drawn)	0.7%	-6.5	3.9	3.7	-2.6	-7.7	4.7%
N#Cc1ccccc1NC(=O)CSc1n[nH]c(=O)n1C1CC1	0.5%	-4.6	-23.3	.	-15.2	-2.5	.
O=C(CNS(=O)(=O)c1ccccc1)NCC(=O)OCc1ccccc1F	2.2%	2.2	4.7	4.6	6.4	6.1	3.0%
Cc1ccc(SCC(=O)c2ccc(CC(=O)O)s2)cc1	-1.2%	0.7	-2.5	2.7	-16.1	0.9	-76.6%
Cc1ccc2nc3c(cc(C(=O)NCCCn4ccnc4)n3C)c(=O)n2c1	-4.0%	-2.5	-16.7	.	-13.5	-10.5	10.9%
CCCNC(=S)N(Cc1ccccc1)Cc1nc2ccccc2c(=O)[nH]1	2.1%	-1.7	-13.7	-1.1	2.5	3.3	-1.2%
COC(=O)c1c(NC(=O)CSc2nnc(CNc3ccc(Cl)cc3)o2)sc(C)c1C	6.4%	-4.0	-6.0	-0.7	-4.2	-2.8	5.6%
CCOC(=O)c1cc2c(=O)n3cccc(C)c3nc2n(CC(C)C)c1=NC(=O)c1ccco1	7.0%	1.5	3.8	4.2	-5.0	-1.5	-14.7%
CC(C)n1nnnc1SCC(=O)N(C)C1CCS(=O)(=O)C1 (stereo not drawn)	0.9%	-0.7	7.9	.	2.1	-4.4	.
CCOC(=O)C1=C(N)Oc2cc(O)ccc2C1c1cccc([N+](=O)[O-])c1 (stereo not drawn)	3.1%	1.6	0.3	-1.7	-5.5	-4.6	4.3%
CC(=O)Nc1ccc(S(=O)(=O)N2c3ccccc3NC(=O)CC2C)c(Cl)c1 (stereo not drawn)	1.9%	5.0	-1.8	-6.9	-1.3	-5.2	9.3%
O=C(Cn1nnc(-c2ccc(Cl)cc2)n1)NC1CCS(=O)(=O)C1 (stereo not drawn)	0.1%	7.1	1.9	-6.5	3.6	-1.2	.
CCc1cc(=O)oc2c(C)c(OS(C)(=O)=O)ccc12	-1.2%	-3.7	0.0	.	-2.9	-22.6	.
O=C(c1cccs1)c1cn(CC(=O)N2CCc3ccccc3C2)c2ccccc12	0.4%	-1.3	-5.4	-7.2	12.8	-12.6	-12.0%
Cc1ccc(Oc2nc(-c3ccccn3)nc3ccccc23)cc1	-0.7%	-5.5	0.4	-15.2	-1.1	-8.3	-16.6%
Cc1ccc(-c2nc(N)n(S(=O)(=O)c3ccc(C)cc3)n2)cc1	15.4%	-3.5	-4.8	-9.0	-10.3	-11.2	5.5%

3 entries from above, ordered by molar mass, low to high:
SMILES	PINK1 modulator	D2 ag	CtBP-E1A blk	TRPV1 potentiator	Six1-Eya2 inh	D2 potentiator	Sfp PPTase inh
Cc1ccc(SCC(=O)c2ccc(CC(=O)O)s2)cc1	-1.2%	0.7	-2.5	2.7	-16.1	0.9	-76.6%
CC(C)n1nnnc1SCC(=O)N(C)C1CCS(=O)(=O)C1 (stereo not drawn)	0.9%	-0.7	7.9	.	2.1	-4.4	.
Cc1ccc2nc3c(cc(C(=O)NCCCn4ccnc4)n3C)c(=O)n2c1	-4.0%	-2.5	-16.7	.	-13.5	-10.5	10.9%

More entries
SMILES	PINK1 modulator	D2 ag	CtBP-E1A blk	TRPV1 potentiator	Six1-Eya2 inh	D2 potentiator	Sfp PPTase inh
O=c1cc(CN2CCN(S(=O)(=O)c3cccc(Cl)c3)CC2)c2ccc(O)cc2o1	0.2%	4.0	-3.1	.	-13.6	3.2	.
CCOC(=O)NC(O)C(=O)c1cccs1 (stereo not drawn)	0.5%	-4.6	1.3	1.6	7.6	-6.1	-12.4%
COc1ccc(-n2c(SCC(=O)NCc3ccco3)nc3c([nH]c4ccccc43)c2=O)cc1	3.9%&11.5%	-3.3	-14.1	?	10.3	-2.5	-21.7%
Cc1cc(NC(=O)c2cc3cccc([N+](=O)[O-])c3[nH]2)ccc1F	3.8%	-2.0	-16.0	-8.5	-16.0	-15.4	-23.6%
CSc1ncccc1C(=O)Nc1nc(C(C)(C)C)cs1	8.7%	1.8	-14.8	-21.1	0.0	-9.0	10.3%
N#Cc1cccc(NC(=O)Cn2cnc(S(=O)(=O)N3CCCC3)c2)c1	0.4%	-4.2	4.1	-6.8	3.8	-14.8	14.6%
COc1ccc(CN2CCN(C(=O)CC(C)C)CC2)cc1Br	1.2%	-3.5	-7.8	?	3.4	-14.5	-28.5%
COc1ccc(S(=O)(=O)N2CC(O)C[C@H]2C(=O)OCC(=O)N2CCCCCC2)cc1 (stereo partly drawn)	-1.7%	-0.9	0.0	-9.3	0.2	0.7	11.8%
Cc1ccc(NC(=O)COC(=O)Cc2c[nH]c3ccccc23)cc1C	-0.1%	-2.2	.	-5.0	-6.9	-7.2	.
Cn1c(CCN2CCCCC2)nc2cc(NC(=O)COc3ccccc3)ccc21	-0.3%	2.6	1.7	-0.2	-1.1	-32.1	22.3%
Cc1ccc(S(=O)(=O)N2CCOCC2)cc1NC(=O)COC(=O)c1n[nH]c(=O)c2ccccc12	-1.2%	-6.0	-1.5	13.5	-7.4	-6.6	15.3%
COc1ccc(NS(=O)(=O)c2cc(NC(=O)CCNC(=O)c3ccco3)ccc2OC)cc1	0.3%	-0.2	-1.6	6.9	2.7	-6.7	.
CCOC(=O)c1cnn(-c2cc(Oc3ccccc3C)ncn2)c1N	4.0%	-3.3	-1.5	-2.0	-2.4	-0.4	50.1µM*
CNS(=O)(=O)c1cccc(C(=O)OCC(=O)Nc2ccc(N3CCCCC3)cc2)c1	0.0%	-5.1	-17.2	16.5	-5.5	-2.2	-7.0%
CCN(CC(=O)Nc1cc(Cl)ccc1Cl)C(=O)c1ccc(-n2cccn2)cc1	1.8%	2.9	2.0	17.8	-9.7	-14.1	.
CCOC(=O)C(C)Sc1nc2c(c(=O)[nH]c(=O)n2C)n1Cc1ccc(Cl)cc1 (stereo not drawn)	1.1%	-3.3	-0.5	0.8	-2.6	6.2	?
COc1ccccc1NC(=O)N(C)C[C@H]1OCc2cnnn2CCCC(=O)N([C@H](C)CO)C[C@@H]1C	0.3%	-3.1	-11.2	.	7.0	-6.0	.
C=CCn1c(N/N=C/c2ccc(O)cc2)nc2ccccc2c1=O	2.9%	2.2	-2.4	-1.7	-2.4	2.5	0.8%
Cc1cccc(C(=O)OCC(=O)Nc2nnc(-c3ccccc3)o2)c1O	2.5%	-3.4	-17.0	6.8	?	4.7	.
COc1ccccc1N1CCN(CC(O)c2ccccc2)CC1 (stereo not drawn)	0.2%	-1.4	-0.2	-2.6	-0.7	-15.2	7.2%
CCCNC(=O)C1CC(c2cccc(F)c2)=NO1 (stereo not drawn)	1.7%	-1.6	.	14.3	8.2	-5.4	-4.3%
N#CCCn1c(SCC(=O)NCCc2ccc(F)cc2)nc2ccccc21	-1.4%	-0.8	5.5	7.0	6.2	-5.6	7.2%
COc1cc(OC)c(C(=O)OCC(=O)NCCc2ccccc2)cc1OC	2.3%	-3.2	0.5	2.0	-7.7	2.8	3.6%
COc1cc(C(=O)NCC(=O)NCC(c2ccco2)N2CCCCC2)cc(OC)c1OC (stereo not drawn)	0.4%	-1.9	-2.2	4.5	5.8	-0.6	.
CSC1=N/C(=C\c2ccc3c(c2)OCO3)C(=O)S1	4.4%	2.6	6.6	4.0	0.9	-8.2	12.0%
OC(COc1ccc2ccccc2c1Br)Cn1cnc(-c2ccccc2)c1 (stereo not drawn)	-0.3%	-1.2	-8.1	-0.7	-22.8	11.9	-17.0%
CCOC(=O)c1ccc(NC(=S)NCc2ccco2)cc1	0.4%	1.2	-17.4	-15.0	-9.6	-8.3	16.9%
COc1ccc(C2CC(c3ccccc3)=NN2c2ccc(C(N)=O)cc2)cc1 (stereo not drawn)	-1.9%	5.4	45.0	-0.6	48.4	0.8	-27.1%
CC(=O)C1=C(C)OC2(O)c3ccccc3C(=O)C12O (stereo not drawn)	2.1%	-17.1	.	-4.6	-1.8	-40.6	?
OCC(O)CN(c1ccccc1)c1ccccc1 (stereo not drawn)	0.4%	-0.6	2.9	7.0	3.4	-5.7	14.0%
